Screening results: PubChem, National Center for Advancing Translational Sciences (NCATS)
Cruzain noTriton – cruzain (T. cruzi) inhibition without detergent. purified cruzain, Z-FR-AMC fluorescence, no detergent. hit rate 2.3% among 200,000. P25779. Potency, µM, for the others: max response, negative = inhibition, most hits filed as inhibitors. AID 1476; active = well fitted curve in the direction sought with a large enough effect; inconclusive = small, poorly fitted or top-dose-only effect, or another doubt; inactive = no such curve, though single readings can be large; an effect the other way counts as inactive or inconclusive;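 note: plate controls were enzyme without inhibitor for no effect and buffer without enzyme for full effect; nearly all actives have a fitted effect of over 40% in size; top concentration of the series not given in the record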
Target sequence (P25779 123-467 limits assumed): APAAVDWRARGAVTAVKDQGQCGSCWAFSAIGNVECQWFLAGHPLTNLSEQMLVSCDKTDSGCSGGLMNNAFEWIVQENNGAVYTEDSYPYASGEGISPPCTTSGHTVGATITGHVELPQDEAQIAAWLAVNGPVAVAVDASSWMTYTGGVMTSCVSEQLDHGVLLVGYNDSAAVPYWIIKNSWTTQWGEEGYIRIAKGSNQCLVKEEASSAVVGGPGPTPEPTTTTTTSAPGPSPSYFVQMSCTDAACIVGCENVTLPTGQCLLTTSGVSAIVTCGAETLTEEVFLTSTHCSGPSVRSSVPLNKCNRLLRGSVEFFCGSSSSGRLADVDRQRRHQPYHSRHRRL
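Purified cruzain at 1.5 nM, pre-incubated 15 min with compound at room temperature in 100 mM sodium acetate pH 5.5, 5 mM DTT, 0.00005% Triton X-100. Reaction started with 2 uM Z-FR-AMC; AMC fluorescence increase over 60 s gives rate.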
Cruzain Triton – cruzain (T. cruzi) inhibition with detergent. AID 1478. P25779. hit rate 0.43% among 200,000. Potency, µM, for inactives: max response, negative = inhibition, hits mostly inhibitors. purified cruzain, Z-FR-AMC fluorescence, 0.01% Triton; active = well fitted curve in the direction sought with a large enough effect; inconclusive = small, poorly fitted or top-dose-only effect, or another doubt; inactive = no such curve, though single readings can be large; an effect the other way counts as inactive or inconclusive;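 note: plate controls were neutral wells for no effect and buffer without enzyme for full effect; nearly all actives have a fitted effect of over 40% in size; top concentration of the series not given in the record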
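Detergent-containing arm of a paired screen for aggregation-based inhibition: 0.01% Triton X-100 present. Cruzain at 1.5 nM cleaved 2 uM Z-FR-AMC at pH 5.5 with 5 mM DTT; AMC fluorescence gain over 60 s measured activity.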
RE007 growth inh – less growth of the S. pombe RE007 Vpr strain; S. pombe RE007 Vpr strain, BacTiter-Glo ATP luminescence, 24 h; control for the full effect not named in the record; Potency, µM (series often up to 92.2 µM), inactives show at the highest dose activity change, negative = less growth; hit rate 0.21% among 360,000; active = well fitted falling curve with a large enough effect; inconclusive = small, poorly fitted or top-dose-only effect; inactive = no such curve, though single readings can be large or run the other way;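 note: % is set by controls: 0 for no effect and ±100 for the full control effect; nearly all actives have a fitted effect of over 50% in size; the assay follows cell death caused by Vpr and the record does not say whether a fall means rescue or toxicity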
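Fission yeast strain RE007, carrying one chromosomally integrated HIV-1 vpr copy, was seeded at OD 0.01 in PMG+AL medium with 23 nL pinned compound. After 24 h at 30 °C and 99% humidity, viability was read by BacTiter-Glo luminescence.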
LASV entry inh – Lassa virus entry inhibition. Lassa virus pseudotype entry inhibition, cell reporter; control for the full effect not named in the record. Potency, µM (titrated, usually from 37.9 µM), inactives show at the top dose activity change, negative = inhibition, hits mostly inhibitors. hit rate 1.2% among 300,000; active means well fitted inhibition curve with a large enough effect; inconclusive means small, poorly fitted or top-dose-only effect, or effect the other way; inactive means flat fitted curve, though single readings scatter; tested in HEK293 cells; note: % is set by controls: 0 for no effect and ±100 for the full control effect; nearly all actives have a fitted effect of over 50% in size; luciferase read-out
2A StopGo – FMDV 2A StopGo reporter, luciferase signal; human cells with a luciferase reporter of 2A StopGo recoding; control for the full effect not named in the record; Potency, µM (top dose mostly 57.9 µM), without a hit: top-dose signal change, negative = less light; hit rate 1.2% among 410,000; AID 1159524; active = well fitted falling curve with a large enough effect; inconclusive = small, poorly fitted or top-dose-only effect; inactive = no such curve, though single readings can be large or run the other way; tested in HEK293T cells; note: % is set by controls: 0 for no effect and ±100 for the full control effect; nearly all actives have a fitted effect of over 45% in size; luciferase light after 4 h
SARS PLpro yeast – SARS-CoV PLP inhibition in yeast. S. cerevisiae expressing SARS-CoV PLpro, growth rescue; control for the full effect not named in the record. Potency, µM (highest dose often 32.9 µM), inactives show top-dose activity, positive = growth rescue. hit rate 0.19% among 330,000; note: 0% is about no effect; nearly all actives have a fitted effect of over 55% in size; growth read by luminescence after 48 h
Marburg entry inh – blocks Marburg virus binding to or entry into cells. Marburg virus pseudotyped entry inhibition, cell reporter; control for the full effect not named in the record; about a third of the inactives were read at about 46 µM. Potency, µM (titrated, usually from 37.8 µM), for inactives: at the highest dose activity change, negative = inhibition, hits mostly inhibitors. hit rate 1.8% among 300,000; active = well fitted inhibition curve with a large enough effect; inconclusive = small, poorly fitted or top-dose-only effect, or effect the other way; inactive = flat fitted curve, though single readings scatter; tested in HEK293 cells; about a fifth of its hits are not listed in these tables; note: % is set by controls: 0 for no effect and ±100 for the full control effect; luciferase read-out
NS1 inh – blocks influenza NS1 protein function. S. cerevisiae slowed by influenza A NS1, growth recovery by OD600. Potency, µM (highest dose often 46.1 µM), without a hit: at the highest dose activity, positive = more growth. hit rate 0.4% among 270,000; note: actives are rising curves; nearly all actives have a fitted effect of over 50% in size
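Read-out: OD600 growth recovery of NS1-expressing budding yeast. Cells grown overnight at 30C in -URA glucose medium, washed, resuspended and diluted 1:100 in 2% galactose assay medium, pH 6.0. Same strain lacking NS1 served as positive control.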
Numbers without * were called inactive; ? = inconclusive; nt = not tested or not shown; & = joins results of further samples; [ ] = another dose, or the depositor's remark. Unless noted, calls come from the whole dose curve; as a rule, active means well fitted rising curve with a large enough effect; inconclusive means small, poorly fitted or top-dose-only effect; inactive means no such curve, though single readings can be large or run the other way. Potency is the fitted concentration of half-maximal effect. The order is random, and some 4.7% of all compounds hit somewhere here.

SMILES | Cruzain noTriton | Cruzain Triton | RE007 growth inh | LASV entry inh | 2A StopGo | SARS PLpro yeast | Marburg entry inh | NS1 inh
CC(=O)OC1(c2ccccc2)CCN(C)CC1(C)C (stereo unspecified) | nt | nt | 4% | nt | 8% | -1% | nt | 2%
COc1ccc(-c2noc(C3CCCN(C(=O)c4ccc(C)cc4)C3)n2)cc1 (stereo unspecified) | nt | nt | -6% | ? | -23% | 2% | ? | -10%
Cc1ccc2nc(SCC(=O)Nc3ccc(C(N)=O)cc3)[nH]c2c1 | nt | nt | -6% | -2% | 23% | -1% | -2%[46.1 µM] | ?
COc1ccc(C(c2nnnn2C2CCCC2)N2CCN(C(=O)c3ccco3)CC2)cc1OC (stereo unspecified) | nt | nt | 6% | 0% | 8% | 0% | 4%[46.1 µM] | 0%
CNC(=O)CN1C(=O)NC2(CCc3ccccc32)C1=O (stereo unspecified) | ? | 9.0% | 8% | -12% | -16% | ? | -21% | 11%
Cc1cc(C)c2c(ccc3cccc[n+]32)c1 | nt | nt | -4% | -19% | ? | nt | ? | nt
O=C1CCC(C(=O)OCC(=O)N2N=C3/C(=C\c4ccccc4)CCCC3C2c2ccccc2)N1 (stereo unspecified) | nt | nt | -10% | ? | 0% | nt | ? | nt
Cc1ccc(NC(=O)COc2ccc3c(c2)CCC3)nc1 | nt | nt | -20% | 25% | 21% | nt | ? | nt
COc1ccccc1N1CCN(C(CNS(=O)(=O)c2ccccc2)c2ccccc2)CC1 (stereo unspecified) | nt | nt | -1% | nt | -9% | -4% | nt | -22%
O=C(N/N=C/c1ccc(OC(=O)c2ccccc2)cc1)c1cccc(O)c1 | nt | nt | 12% | ? | -23% | -1% | 19%[46.1 µM] | nt
CC1CC(C)CN(c2cc(=O)n(Cc3ccc(F)cc3)c(=O)[nH]2)C1 (stereo unspecified) | 0% | -3.0% | 8% | nt | -2% | 0% | nt | 12%
O=C(O)CCc1ccc(-c2ccc(Cl)cc2)n1NC(=O)c1ccc(O)cc1 | nt | nt | -5% | nt | -10% | 1% | nt | 13%
CCCOP(=O)(c1ccc(N(C)C)cc1)C(O)c1c(Cl)cccc1Cl (stereo unspecified) | nt | nt | 13% | 0% | 40%[activator] | -3% | ? | -3%
COc1cc(CO)ccc1OCC(=O)Nc1ccc(Br)cc1 | nt | nt | -2% | 15% | 32%[activator] | -2% | -3% | -3%
CC(=O)c1cc(-c2ccccc2)n(CCC(=O)Nc2nc3c(C)cccc3s2)c1C | -5% | 1.4% | nt | 14%[46.1 µM] | 9% | nt | nt | nt
COc1cc(N2CCCC2)c(OC)cc1/C=c1/sc2nc3ccccc3n2c1=O | 12% | 5.2% | nt | nt | nt | -4% | 5% | -3%
COc1ccc(N2CCN(CC(=O)Nc3ccccc3SC)CC2)cc1 | nt | nt | -15% | nt | -30% | -1% | ? | -3%
CCCOc1ccc(C2NC(=O)CCC2[N+](=O)[O-])cc1 (stereo unspecified) | nt | nt | 4% | nt | 6% | 2% | nt | 7%
Cc1ccc(NC(=O)CS(=O)(=O)c2nc(-c3ccc(C)cc3)cn2-c2ccc(C)cc2)cc1 | 13µM* | -20% | nt | ? | 19% | nt | ? | nt
CCCCSCCCNC(=O)C1CCN(Cc2nc(-c3cccc(Br)c3)oc2C)CC1 | 4% | 1.9% | nt | 11%[46.1 µM] | 0% | nt | 14%[46.1 µM] | nt
Cc1ccc2sc(N(CCCN(C)C)C(=O)c3ccc(S(=O)(=O)N(C)Cc4ccccc4)cc3)nc2c1C | nt | nt | 24% | ? | 32µM* | -14% | ? | nt
Cn1c(=O)c(C(=O)NCCc2ccc(Cl)cc2)c(O)c2ccccc21 | nt | nt | 0% | nt | 17% | 0% | nt | 9%
O=C(Nc1nnc(COc2ccc(Cl)cc2)s1)C1CCCO1 (stereo unspecified) | -2% | -0.7% | -28% | 3% | 0% | -1% | ? | -96%
CCCOc1cccc(C(=O)Nc2cccc3ncccc23)c1 | nt | nt | -7% | -16%[46.1 µM] | ? | -2% | -25%[46.1 µM] | -15%
O=[N+]([O-])c1ccc(Cl)c(/C=N/NC(=S)Nc2ccccc2)c1 | 25µM* | -7.7% | 12% | 0% | 5% | 1% | -11% | 4%
O=C(CN1CCCCCCC1)N/N=C/c1ccc(F)c(F)c1 | -3% | -0.7% | 5% | -2% | 14% | 9% | -28% | 2%
CC(=O)c1cn(-c2ccc(Cl)cc2)c(=O)[nH]c1=O | nt | nt | 2% | 15%[46.1 µM] | -4% | 1% | 5%[46.1 µM] | -1%
CN(C)c1ccnc(NCc2ccccc2)c1C#N | -1% | 3.6% | -2% | 16% | 38%[activator] | -4% | 23% | -6%
COc1ccc(CN2CCC(C(=O)c3ccc(Cl)cc3)CC2)cc1 | nt | nt | -23% | nt | -17% | -5% | nt | -13%
O=C(CCN1C(=O)c2ccccc2C1=O)Nc1ccc(F)cc1 | -1% | -9.7% | -7% | 1% | nt | -3% | -2% | -6%
Cc1ccc(NC(=S)N(C)C)cc1C | nt | nt | -22% | 11% | -3% | 0% | 19% | 1%
O=C(CC(O)(CC(=O)OCc1ccccc1)C(=O)OCc1ccccc1)OCc1ccccc1 | nt | nt | -3% | ? | -28% | nt | ? | nt
Cn1c(=O)oc2cc(S(=O)(=O)N3CCCC(C(=O)N4CCN(c5ccccc5F)CC4)C3)ccc21 (stereo unspecified) | 13% | -0.2% | nt | 5%[46.1 µM] | 20µM* | nt | 1%[46.1 µM] | nt
O=C(Nc1ccc(Cl)cc1)N1CC2CC(C1)c1cccc(=O)n1C2 (stereo unspecified) | nt | nt | -2% | 4% | 36%[activator] | -1% | ? | -16%
Nc1ccc(Cc2ccc([N+](=O)[O-])cc2)cc1 | nt | nt | 1% | 11%[46.1 µM] | -18% | nt | -2%[46.1 µM] | nt
O=S(Cc1ccc(Cl)cc1)CC(O)(c1ccccc1)c1ccccc1 (stereo unspecified) | 4% | -3.4% | -5%[3.69 µM] | 15% | 11% | -4% | 3% | -9%
COC(=O)Nc1sc2c(c1C(=O)NCc1ccco1)CCCC2 | -8% | -7.1% | 4% | -26% | -4% | 1% | -14% | 4%
Cc1ccc(S(=O)(=O)N(C)CC(=O)N2CCN(Cc3ccc4c(c3)OCO4)CC2)cc1 | nt | nt | -5% | ? | -15% | -2% | -19% | -9%
CC(C)NC(=O)C1CCN(C2CCN(C(=O)C3=CCCC3)CC2)CC1 | nt | nt | -3% | nt | 8% | 5% | nt | -1%
CCOc1ccc(NC(=O)Nc2nc3ccc(S(C)(=O)=O)cc3s2)cc1 | nt | nt | 0% | -12% | 10% | 2% | 12% | 5%
O=C(c1cccs1)N1CCCC(N2CCN(c3ccc(F)cc3)CC2)C1 (stereo unspecified) | nt | nt | -3% | 10%[46.1 µM] | -15% | -4% | 1%[46.1 µM] | 8%
Cn1c(Cl)c(/C=N/OC(=O)C(C)(C)C)c2ccccc21 | nt | nt | -13% | -25%[46.1 µM] | 9% | -1% | 3%[46.1 µM] | -2%
Cc1ccc(N2C(=O)N(CC(=O)N3CCCc4ccccc43)C(=O)C2C)cc1 (stereo unspecified) | 1% | -2.0% | -4% | ? | 8% | 2% | -14% | 9%
CCc1ccccc1Nc1nc(N)nc(COC(=O)C2CCN(C(=O)c3ccc(F)cc3)CC2)n1 | nt | nt | -6% | ? | ? | 2% | -19%[46.1 µM] | nt
Cc1cn(C)c(CC(=O)Nc2ccc(F)cc2Cl)c1C(=O)O | -14% | 0.0% | nt | ? | -10% | nt | nt | nt
O=C(N/N=C1\CCc2ccccc21)c1ccc(O)cc1 | nt | nt | -2% | -29% | -3% | 0% | -22% | 3%
CC(C(=O)Nc1ccccc1)c1ccc(-c2ccccc2)c(F)c1 (stereo unspecified) | -15% | -3.3% | 2% | ? | ? | 4% | -28% | 10%
O=C(Nc1ccc2c(c1)N(C1CCCC1)C(=O)c1ccccc1S2)c1ccccc1F | ? | 0.0% | nt | ? | 0% | nt | nt | nt
O=C(Nc1ccnn1C1CCN(Cc2ccccc2F)CC1)C1CCCC1 | nt | nt | 7% | 8% | -32% | 0% | 1% | 3%
Cn1c(C(=O)N2CCN(Cc3ccc4c(c3)OCO4)CC2)cc2c(=O)n(C)c3ccccc3c21 | -8% | -0.8% | 2% | nt | ? | 3% | 0% | -40%
CN(Cc1nc(Cc2cccc(F)c2)no1)CC1COCCO1 (stereo unspecified) | nt | nt | -13% | 0% | 51%[activator] | -1% | 3%[46.1 µM] | 7%
CCCNc1ncnc2c1c(-c1ccccc1)cn2-c1ccccc1 | 10% | -2.1% | nt | 19%[46.1 µM] | -20% | nt | nt | nt
CC(C)(C)n1nnnc1CN1CCN(C2CCCC2)CC1 | 3% | 0.3% | 19% | 1% | -18% | 3% | 1% | -4%
Cc1ccc(C(=O)Nc2cc(=O)n(C)c(=O)n2C)cc1C | -4% | 4.5% | 11% | nt | -14% | -1% | nt | 0%
CC(NC(=O)NCCCn1ccnc1)(C(F)(F)F)C(F)(F)F | 3% | 3.3% | -4% | -6% | 7% | 4% | 3%&3%[46.1 µM] | 9%
NC(=O)CN1C(=O)C(=O)N(Cc2cccc(C(F)(F)F)c2)C1=O | nt | nt | 10% | nt | -12% | 1% | nt | -1%
CCC(=O)n1nc(-c2ccco2)nc1SCc1ccccc1 | -13% | -3.9% | 12% | ? | 18% | -11% | 11%[46.1 µM] | -18%
COc1ccccc1CNC(=O)COC(=O)Cn1cnc2ccccc21 | nt | nt | -19% | nt | -11% | 0% | nt | -1%
CCn1c(SCC(=O)NCc2ccco2)nnc1-c1c[nH]c2ccccc12 | -5% | -6.5% | -8% | 3% | 14% | 1% | -8% | -33%
COC(=O)c1ccccc1N=C(SC)N(C)C | 2% | 1.6% | -10% | 10% | 1% | -17% | ? | -11%
CCCN1C(=O)c2ccc(C(=O)Nc3nccs3)cc2C1=O | 9% | 14% | -29% | 6% | 17% | -7% | 3% | -20%
COC(=O)C(C(C)=O)C1=C/C(=N\S(=O)(=O)c2ccc(C)cc2)c2ccccc2C1=O (stereo unspecified) | 4% | -12% | -10% | 1% | -2% | 2% | -14% | -5%
CCCCn1c(=O)nc2n(-c3ccc(F)cc3)c3ccccc3cc-2c1=O | 3% | -1.4% | nt | -1%[46.1 µM] | 11% | nt | nt | nt
